# Assay outcomes (PubChem)
# ugtP null kill: kills S. aureus RN4220 lacking UgtP; growth inhibition, % (concentration not given with the values); AID 1259309; S. aureus RN4220 ugtP deletion, OD600 growth, 16 h; some inactives read as strong as hits; actives 0.54% (n = 330,000);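 active = z-score under -3 and OD600 up to 0.15 on both plates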;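 note: plate controls were untreated wells for no effect and antibiotic for full effect; wells of about 80 µL received 100 nL stock; the first replicate is given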
# Mtb hypoxia inh: inhibitors of hypoxia-regulated fluorescent reporter in Mycobacterium tuberculosis; M. tuberculosis hypoxia-regulated fluorescent reporter, fluorescence; fluorescence inhibition, % (concentration not given with the values); actives 0.1% (n = 300,000); AID 1159583;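 active = 35 to 45% if threefold the growth effect, above 45% if 1.5-fold the growth effect; inactive = the rest, general growth blockers included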;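 note: wells of about 50 µL received 100 nL stock; 0% = vehicle wells and 100% = reference inhibitor wells; whole bacteria with a GFP reporter of the hypoxia response; strong numbers were not always called active; many hits fall short of the cut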
# BJeLR viability: BJeLR cell viability loss. inhibition, % (no concentration beside the values). actives 0.17% (n = 300,000). BJeLR (HRASV12) viability, CellTiter-Glo ATP luminescence, 48 h; reference of the scale not given here;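 active = replicate mean above 50%; inconclusive = above 50% but judged a plate artefact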;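 note: 50 nL library stock added to about 25 µL; numbers are from one replicate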
# Bead autofluor: flagged as autofluorescent in microsphere protease counterscreen | compound autofluorescence counterscreen, microsphere flow cytometry; hits give high values | fluorescence intensity (test concentration not listed) | actives 3.1% (n = 360,000) | AID 624483;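 active = at least 3 SD above the mean of all compounds, about 16000 in these data; inconclusive = too few beads counted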;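 note: 100 nL of 1 mM stock went into each well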
# RN4220 kill: kills Staphylococcus aureus RN4220 | S. aureus RN4220 growth, OD600, 16 h | inhibition, % (test concentration not listed) | actives 0.33% (n = 330,000) | AID 1259311;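 active = z-score of -3 or lower and OD600 up to 0.18 on both plates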;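 note: plate controls were untreated cells for no effect and reference antibiotic for full effect; stock transfer was 100 nL into about 80 µL; one replicate is shown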
# PrP UTR inh: inhibition of PrP 5' UTR reporter expression; cell-based PrP 5' UTR mRNA reporter, plate reader; inhibition, % (test concentration not listed); actives 0.35% (n = 340,000);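 active = every replicate at 50% or more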;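 note: 0 = median of the neutral control wells; tested in H4 reporter cells; numbers are from one replicate; inactives centre near -14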
# Mtb hypoxia inh growth: also measured in Mtb hypoxia inh; calls as there; growth inhibition, %; measured here: M. tuberculosis growth (absorbance);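 0% = vehicle and 100% = reference antibiotic; read after six days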
# Starred values were filed as active, the others as inactive; ? = inconclusive; . = not tested or not shown.
# Below each SMILES: RN4220 kill	Bead autofluor	Mtb hypoxia inh	ugtP null kill	PrP UTR inh	Mtb hypoxia inh growth	BJeLR viability
- CCOC(=O)c1c(C)[nH]c(C(=O)C(C)OC(=O)c2cccc(OCc3c(C)noc3C)c2)c1C (stereo unspecified)
  -0.1	3537	.	-1.6	-9.8	.	-1.9
- CCCNS(=O)(=O)c1ccc(OCC(=O)N2CCN(C)CC2)cc1
  0.8	6279	-1.8	-1.0	-5.7	-3.4	1.7
- C=C1CCN([C@H](C(=O)Nc2ccc(OC)cc2)C(C)C)S(=O)(=O)c2ccccc21
  .	3061	.	.	-6.6	.	-9.9
- O=C(c1ccc2c(c1)N(Cc1ccccc1)C(=O)CS2)N1CCOCC1
  3.5	7568	-0.7	1.7	0.6	0.3	-4.6
- CCc1nc(SCC(=O)NCC2CCCO2)c2oc3ccccc3c2n1 (stereo unspecified)
  5.5	2096	.	-19.6	-3.0	.	-7.3
- CC1CCN(C(=O)c2cc(-c3ccc(Cl)c(Cl)c3)on2)CC1
  8.6	7799	4.7	-0.8	-18.4	0.1	5.9
- CCOC(=O)NN=Cc1ccc(OC(=O)c2ccco2)cc1
  5.1	.	-2.5	0.6	.	-11.3	.
- O=S(=O)(NN=C1CCCCCCC1)c1ccc(Br)cc1
  1.8	4805	.	-6.9	-5.2	.	-0.5
- Cc1ccc(-n2c(C)nn(Cc3ccc([N+](=O)[O-])cc3)c2=O)cc1
  3.0	4790	-4.1	4.8	-16.1	2.0	-26.0
- CC1(c2nnc(Cc3ccccc3)o2)CC(c2c(Cl)cccc2Cl)=NO1 (stereo unspecified)
  5.8	3626	-3.3	-4.8	-30.8	7.6	4.9
- Cc1ccc(-n2nnnc2SCc2ccc(C(=O)O)cc2)cc1C
  7.2	3995	10.8	-1.4	-10.4	8.0	-2.5
- Cc1[nH]c(=O)[nH]c(=O)c1/C=N/NC(=O)[C@H](C)NC(=O)OC(C)(C)C
  .	2936	.	.	0.0	.	1.9
- N=c1c2c(ncn1CCCO)Oc1c(ccc3ccccc13)C2c1ccccc1 (stereo unspecified)
  -5.7	4705	-1.5	-12.0	-10.2	8.8	5.9
- CC(=O)c1cccc(CN2CCN(CC=C(C)C)C(CCO)C2)c1 (stereo unspecified)
  4.4	4522	14.5	1.0	-6.3	6.9	-0.9
- Cn1ccnc1SCC(=O)c1cccc(C(F)(F)F)c1
  4.1	5870	17.5	1.6	-52.3	-0.3	-3.7
- COC(=O)c1c(NC2=NS(=O)(=O)c3ccccc32)sc2c1CCC(C(C)(C)C)C2 (stereo unspecified)
  -1.4	6266	20.1	8.9	-16.6	4.5	.
- CNCc1ccccc1Sc1ccc(O)c(O)c1
  17.1	1772	2.5	8.1	-12.5	0.1	6.3
- C=CCN1C(=O)c2ccc(C(=O)NCCc3ccc(F)cc3)cc2C1=O
  4.0	4024	13.2	6.5	-9.3	4.4	-2.4
- CCNc1nc(NCC)n2c(SCC(=O)c3ccccc3F)nnc2n1
  5.6	4226	11.0	7.2	-8.9	9.0	3.8
- CCn1c(SCC(=O)NNC(=O)Cc2ccccc2)nnc1-c1ccccc1
  0.0	9865	0.9	4.9	.	1.9	13.7
- CCCN1C(=O)S/C(=C/c2ccc(N3CCOCC3)o2)C1=O
  3.9	5032	13.2	-3.7	-39.1	6.4	5.9
- COc1ccc(C(CNC(=O)C(=O)Nc2ccc3c(c2)OCCO3)N2CCN(C)CC2)cc1 (stereo unspecified)
  -1.1	5682	-7.3	-2.7	-13.8	6.4	-2.9
- CC(c1ccccc1)n1c(-c2ccncc2)n[nH]c1=S (stereo unspecified)
  0.7	4648	.	-2.5	-4.3	.	-4.6
- C=CCN1C(=O)C(=Nn2cnnc2)c2ccccc21
  7.7	.	6.4	-6.8	.	8.3	.
- Cc1[nH]c(C)c(S(=O)(=O)N2CCN(c3ccccc3)CC2)c1C(=O)N1CCCCC1
  2.0	6045	-4.2	3.9	0.0	-3.2	-7.0
- Cc1ccc(CC(=O)Nc2cc(C)on2)cc1
  2.7	3617	14.5	25.8	-16.9	8.5	0.8
- COc1cccc(OCCCN2CCCCC2)c1
  5.2	10185	6.3	2.8	-36.2	13.1	2.1
- COC(=O)C1=CO[C@@H](O[C@@H]2OC(CO)[C@@H](O)[C@@H](O)[C@@H]2O)C2C1CC[C@]2(C)O (stereo partly specified)
  8.1	4143	.	-11.6	-10.5	.	-3.9
- CC(=O)Oc1ccc2c(c1)C(=O)c1ccccc1CO2
  4.6	3588	.	-2.2	-8.8	.	-3.6
- CCCCCCCCN1[C@@H](CC(=O)O)c2cc(F)ccc2S1(=O)=O
  .	3550	.	.	-28.9	.	6.2
- COCCn1c(SCc2nnc(-c3ccc(OC)c(OC)c3)o2)nnc1-c1ccncc1
  -1.0	4618	-9.0	-1.9	-19.1	-0.8	1.0
- CN1C(=O)NC(NC(=O)c2ccco2)(C(F)(F)F)C1=O (stereo unspecified)
  3.5	6143	0.8	-5.5	-22.7	9.4	0.1
- CS/C(N)=N/N=Cc1c(O)ccc2ccccc12
  -3.5	.	12.7	-5.0	.	2.0	.
- COc1cccc(-c2noc(C3CCCN(C(=O)c4ccc(F)cc4F)C3)n2)c1 (stereo unspecified)
  4.5	.	20.1	6.1	-8.5	8.0	2.4
- COc1cc(Br)c(-c2sc(Nc3ccccc3)n[n+]2-c2ccc(F)cc2)cc1OC
  -0.8	3397	16.1	-16.8	-8.0	0.9	2.1
- CCN(CC)c1ccc(NC(=O)c2ccccc2F)cc1
  2.3	4876	.	8.0	-16.3	.	12.1
- O=C(CCc1nc2ccccc2c(=O)[nH]1)NCCN1C(=O)S/C(=C\c2ccccc2Cl)C1=O
  4.5	.	-7.0	-9.0	-2.0	-4.9	2.2
- CSc1nnc(Cc2ccc3c(c2)OCO3)o1
  6.5	3809	15.2	-3.2	-27.1	16.0	-2.9
- CCSc1nnc(NC(=O)c2cccc(S(=O)(=O)N(C)c3ccc(C)cc3)c2)s1
  18.5	2556	1.8	-2.4	-3.2	15.3	-3.3
- COc1ccc(CN2CCN(C(=O)c3ccc(S(=O)(=O)N4CCCCCC4)cc3)CC2)cc1
  0.3	.	-1.9	2.0	-15.9	-12.8	.
- Cc1ccc(C(=O)OCCN(C)Cc2ccccc2)cc1
  -0.6	2584	-0.3	24.5	-8.6	2.7	4.9
- COC(=O)c1ccc(NC(=O)C2CC3CCC2C3)cc1 (stereo unspecified)
  4.2	6221	9.0	0.5	-66.7	1.5	-7.6
- COc1ccc(NC(=O)c2ccc3c(c2)C(=O)N(Cc2ccncc2)C3=O)cc1S(N)(=O)=O
  5.2	3736	8.6	-4.5	-13.1	4.7	.
- O=c1c2ccccc2c(C=NC2CCS(=O)(=O)C2)c(O)n1-c1ccccc1 (stereo unspecified)
  2.8	6950	5.8	4.4	-9.9	-0.2	0.1
- Cc1cccc(-c2noc(CN(C(=O)c3ccc4c(c3)OCO4)C(C)C)n2)c1
  -1.2	4997	.	-1.1	-16.4	.	-1.5
- CCCCN(C(=O)CC1OC(=O)c2ccccc21)c1c(N)n(CCCC)c(=O)[nH]c1=O (stereo unspecified)
  2.0	.	-6.0	4.6	-3.9	-7.4	-1.9
- Cc1ccc(C)c(OC(C)C(=O)Nc2ccc(S(=O)(=O)Nc3nccs3)cc2)c1 (stereo unspecified)
  6.7	5552	1.2	0.0	-24.2	-5.8	6.1
- Cc1cccc(NC(=S)NC(C)CCc2ccccc2)c1 (stereo unspecified)
  -1.9	6454	-1.9	20.0	-5.9	-10.8	-6.1
- CC1CC(=O)NN=C1c1ccc(N)c([N+](=O)[O-])c1 (stereo unspecified)
  1.2	2142	2.9	8.7	-7.6	2.2	-6.1
- COC(=O)/C(C#N)=C/c1c(N2CCN(c3ccccc3)CC2)nc2ccccn2c1=O
  2.7	3797	15.1	12.5	-28.9	4.7	-6.9
- Clc1ccc(-c2nc3ccncc3[nH]2)cc1
  9.7	2481	9.6	6.6	-49.9	-1.7	18.2
- C[C@H](NC(=O)c1ccccc1Cl)C(=O)OCCOc1ccc(Cl)cc1
  4.5	4293	-0.8	7.0	-15.5	6.6	-12.7
- COC(=O)c1ccc(Nc2nc(N3CCOCC3)nc(N3CCOCC3)n2)cc1
  5.3	5354	16.4	3.0	0.5	5.7	-3.3
- CC1=C(C(=O)OCc2ccccc2)C(c2cccs2)N2C(=O)CCSC2=N1 (stereo unspecified)
  2.1	4595	1.7	13.9	4.9	5.0	-3.1
- O=C1NC(=S)S/C1=C\c1cc2ccccc2nc1N1CCCCC1
  84.4*	.	-0.9	86.4*	-6.1	-10.9	9.2
- COC(=O)c1ccc(N2NC(=O)/C(=C/c3cc(OC)c(O)c(OC)c3)C2=O)cc1
  5.2	3889	10.0	2.0	-15.6	-0.8	0.2
- CSc1ccc(NC(N)=S)cc1
  3.9	5442	.	6.4	-15.1	.	0.2
- CCOC(=O)c1ccc(NC(=S)NNC(=O)C2(C)CC2(Cl)Cl)cc1 (stereo unspecified)
  -6.5	2995	7.2	-10.1	13.4	0.0	-9.9
- CCN(CC)c1ccc(CNc2nc3ccccc3n2C)cc1
  -3.8	?	-1.8	8.2	-25.3	-7.2	-12.9
- COc1cc(/C=N/OCC(=O)NC2CCCCC2)ccc1OCc1ccccc1
  .	10944	.	.	1.7	.	-1.9

# (cont.)
# Below each SMILES: RN4220 kill	Bead autofluor	Mtb hypoxia inh	ugtP null kill	PrP UTR inh	Mtb hypoxia inh growth	BJeLR viability
- CN(C)CCNC(=O)/C(=C/c1ccc(-c2ccc(Cl)cc2)o1)NC(=O)c1ccccc1
  1.2	2557	11.5	-14.3	-23.4	11.8	7.9
- Cc1c(C(=O)N2CCN(C(=O)c3ccco3)CC2)sc2nc(-c3ccc(F)cc3)cn12
  -9.3	5648	0.0	-13.7	-46.6	3.3	6.6
- CC1=C(C#N)c2nc(N)c(C#N)c(C)c2/C1=C\c1ccc(-c2ccccc2C(=O)O)o1
  4.5	4396	10.6	6.8	-18.4	6.9	6.3
- C=CC[N+]1(C)C2CCC1CC(O)C2 (stereo unspecified)
  2.5	4232	12.3	5.3	-12.8	5.5	-19.5
- Cc1cc(C(=O)OCC(N)=O)c(C)n1-c1ccccc1
  14.7	3162	12.1	2.7	-24.2	2.0	-6.0
- O=C(NC(=S)Nc1cccc(C(F)(F)F)c1)c1csnn1
  2.1	2536	8.4	1.2	-29.2	1.1	6.4
- OC(COc1ccc(F)cc1)CN1CCN(CC(O)COc2ccc(F)cc2)CC1 (stereo unspecified)
  3.2	3121	-1.9	5.0	-10.6	7.0	7.9
- CC(C)Cc1nc2ccccc2n1CCc1ccccc1
  17.9	2255	6.4	-3.6	-18.0	-2.8	-5.7
- O=C(/C(=C/c1cccnc1)n1ccnc1)c1ccc(Cl)cc1Cl
  4.1	5735	-0.3	-6.6	-8.6	7.3	13.5
- COc1cc2ccccc2cc1C(=O)N(CCN(C)C)c1nc2c(F)cccc2s1
  -2.7	5736	12.1	-3.1	-7.7	7.1	-8.4
- NC(=O)c1nsc(C(=O)N(c2ccc3c(c2)OCO3)C(C(=O)NCC2CCCO2)c2ccc(F)cc2)c1N (stereo unspecified)
  6.5	3607	5.5	-2.6	-10.8	5.3	-5.7
- CCNc1ccc(C(=O)OCC)cc1NC(=O)c1cccc(N(C)C)c1
  4.5	6926	9.9	8.7	-31.2	7.9	3.2
- CCCCC(O)(CCCC)C(=O)NN(C(=O)OCC)c1ccccc1
  8.4	2388	-7.6	-4.0	-87.9	-5.5	-1.4
